Assay outcomes from PubChem BioAssay.
VACV Venus inh – inhibitors of vaccinia virus (Venus reporter). Potency, µM (top dose mostly 36.5 µM), inactives show top-dose activity change, negative = inhibition, most hits filed as inhibitors. hit rate 0.46% among 330,000. AID 720580. Vaccinia virus Venus reporter expression, fluorescence; active means well fitted inhibition curve with a large enough effect; inconclusive means small, poorly fitted or top-dose-only effect; inactive means no such curve, though single readings can be large or run the other way; tested in A549 cells; note: nearly all actives have a fitted effect of over 30% in size; inactives centre near -10
VACV mCherry inh – inhibitors of vaccinia virus infection (mCherry reporter signal). AID 720579. Potency, µM (series often up to 36.5 µM), for the others: at the top dose activity change, negative = inhibition, actives largely listed as inhibitors. Vaccinia virus mCherry reporter infection, fluorescence; about a quarter of the inactives have no number. hit rate 0.63% among 310,000; active = well fitted inhibition curve with a large enough effect; inconclusive = small, poorly fitted or top-dose-only effect; inactive = no such curve, though single readings can be large or run the other way; tested in A549 cells; note: nearly all actives have a fitted effect of over 35% in size; inactives centre near -10
The depositor's hits bear a star; i = inactive; ? = inconclusive; . = not tested or not shown; & = joins results of further samples; [ ] = dose if it differs, or a comment. % is set by controls: 0 for no effect and ±100 for the full control effect; potency is the fitted concentration of half-maximal effect.

Results follow in this order: VACV Venus inh	VACV mCherry inh
1	Cc1ccn2c(NC(=O)c3ccco3)c(-c3ccccc3)nc2c1
  -9%	-12%
2	CSc1ccc(Cl)c(C(=O)OCC(=O)N2CCN(c3ccccc3)CC2)c1
  -12%	-8%
3	CCc1cc2c(SCC#N)ncnc2s1
  -18%	?
4	Fc1ccccc1Nc1n[nH]c(=S)s1
  -12%	-11%
5	Cc1ccc(-n2nc3c(c2NC(=O)CCC2CCCCC2)CS(=O)C3)cc1 (stereo not drawn)
  0%	-10%
6	COc1ccc(OC)c(/C=C/c2sc3ccccc3[n+]2C)c1
  -8%	28%
7	COc1ccc(-c2nnc(SCC(=O)c3[nH]c(C)c(C(C)=O)c3C)o2)cc1
  -2%	-4%
8	COCCn1nnnc1C(c1ccc(OC)cc1OC)N1CCN(c2ccccc2F)CC1 (stereo not drawn)
  -27%	.
9	Cc1cc(C)c(C(=O)COC(=O)CCn2c(C)csc2=O)cc1C
  -7%	-8%
10	Cn1c(=O)c2c(nc(SC3C(=O)CC(C)(C)CC3=O)n2C)n(C)c1=O
  -5%	-8%
11	CCCCOCCCNC(=O)N[C@H](C(=O)OC)C(C)C
  -11%	.
12	Cc1cccnc1NC(=O)CNC(=O)C12CC3CC(CC(Cl)(C3)C1)C2
  -10%	-14%
13	COc1ccc(OC)c(NC(=O)C2CCC(CNc3c(N4CCC(C)CC4)c(=O)c3=O)CC2)c1 (stereo not drawn)
  ?	?
14	S=C(NCc1cccs1)Nc1cc(Cl)cc(Cl)c1
  -21%	-23%
15	CC(C)C1C(C#N)=C(N)Oc2c1c(=O)oc1ccccc21 (stereo not drawn)
  -5%	-9%
16	COC(=O)c1c(C)[nH]c(C)c1-c1ccccc1
  -1%	-7%
17	O=C(CN(Cc1cccs1)C(=O)CNS(=O)(=O)c1ccc(F)cc1)NCC1CCCO1 (stereo not drawn)
  -9%	-6%
18	CCOc1cc(NC(=O)C2CC2)c(OCC)cc1NC(=O)c1ccccn1
  13%	.
19	Cc1ccccc1S(=O)(=O)Nc1nc2ccccc2nc1Cl
  -8%	i
20	NS(=O)(=O)c1cccc(NC(=O)COC(=O)CSCc2ccccc2)c1
  -15%	-19%
21	COc1ccc(NC(=O)C(Sc2nnc3ccccn23)c2ccccc2)cc1Cl (stereo not drawn)
  -11%	-1%
22	O=C(c1cccs1)c1cn(CCOc2ccccc2F)c2ccccc12
  -16%	-16%
23	O=S(=O)(Nc1ccc(Br)cc1F)c1ccc2nc(-c3ccccc3)[nH]c2c1
  -21%	-30%
24	CCOC(=O)/C(=C\c1cn(C)c2ccccc12)[N+](=O)[O-]
  -23%	?
25	COC(=O)CC1C(C)(C)C(OC(C)=O)C2[C@H](OC(C)=O)[C@]34O[C@]2(O)[C@]1(C)C3CC[C@]1(C)C4=CC(=O)OC1c1ccoc1 (stereo partly drawn)
  ?	-15%
26	COc1ccc(-c2cn(Cc3ccc([N+](=O)[O-])cc3)nn2)cc1
  -12%&-21%	?
27	C=CCOc1ccc(-c2nc3c(c(=O)[nH]c(=O)n3Cc3ccccc3)n2CCCOC)cc1
  -5%	-9%
28	CCOc1ccc2[nH]c(C)cc(=O)c2c1
  -4%	-9%
29	CC(=O)c1ccc(S(=O)(=O)NC2CC(=O)N(c3ccc(C)c(C)c3)C2)cc1 (stereo not drawn)
  -14%	-11%
30	Cc1cc(=O)oc2cc(OCC(=O)Nc3nnc(C(C)C)s3)ccc12
  -6%	-7%
31	O=C(c1ccc([N+](=O)[O-])cc1)N1CCc2ccccc21
  -24%	-9%
32	COc1c(Cl)cc(-c2noc(C)c2C(=O)NCc2ccccc2)cc1Cl
  -5%	1%
33	COc1ccc(C(=O)Oc2ccc(/C=N/NC(=O)Cc3ccc([N+](=O)[O-])cc3)cc2)cc1
  -5%	-10%
34	c1coc(Cn2nnnc2CN2CCN(C3CCCCC3)CC2)c1
  -3%	-3%
35	CC[C@@H]1C=C(C(=O)O)[C@H](c2ccc(F)cc2)N1S(=O)(=O)c1ccc(C)cc1
  ?	-6%
36	CC1CCN(S(=O)(=O)c2cc(C(=O)NCc3ccccc3)n(C)c2)CC1
  -14%	-16%
37	O=C(NCCN1C(=O)S/C(=C\c2ccc(F)cc2)C1=O)c1cccc(S(=O)(=O)N2CCOCC2)c1
  -11%	-29%
38	CN(C)CCCNCC(=O)Nc1ccccc1N1CCOCC1
  -14%	-13%
39	CN(CCN(C)C(C)(C)C)C(=O)C(c1ccccc1)c1ccccc1
  -7%	-15%
40	Cc1[nH]nc2c1C(Cc1ccccc1)C(C#N)=C(N)O2 (stereo not drawn)
  12%	3%
41	C[C@@H]1CN([C@H](C)CO)C(=O)CCCn2cc(nn2)CO[C@H]1CN(C)S(=O)(=O)c1ccc(Oc2ccccc2)nc1
  -20%	-5%
42	COc1ccccc1N1CCN(C(=O)c2c3c(nc4ccccc24)C(=O)N(C2CCCCC2)C3)CC1
  -3%	i
43	O=C(CSc1ncc(S(=O)(=O)c2ccc(Br)cc2)c(=O)[nH]1)NCc1ccccc1Cl
  6%	9%
44	Cc1noc(C)c1S(=O)(=O)N1CCC(C(=O)NCCC2=CCCCC2)CC1
  -9%	-5%
45	CCCSc1nc2c(c(=O)[nH]c(=O)n2C)n1C
  -14%	-1%
46	CC(=O)/C(=C\c1ccccc1)CC(=O)O
  0%	i
47	CCCCn1c(N)c(N(CCC(C)C)C(=O)COC(=O)c2cccnc2SC)c(=O)[nH]c1=O
  -6%	-14%
48	CCOC(=O)C(C)Sc1nc(-c2ccccc2Cl)cc(-c2ccccc2)c1C#N (stereo not drawn)
  2%	0%
49	CCOC(=O)N1CCN(C(=O)C[C@@H]2C[C@@]3(C(=O)OC)CCCCC=C3N(CCc3ccc(OC)c(OC)c3)C2=O)CC1
  -5%	-4%
50	CN(C)CCn1c(=S)[nH]c2ncccc2c1=O
  -9%	i
51	Cc1cc2c3c(c1C)C(=O)C(=O)N3C(C)(C)CC2C (stereo not drawn)
  -3%	i
52	O=C(c1cnn2c(C(F)F)cc(C3CC3)nc12)N1CCOCC1
  -11%	.
53	COc1nc(Nc2nc3ccccc3c(=O)[nH]2)nc2ccc(C)cc12
  2µM*	2µM*
54	CC(C)c1ccc(S(=O)(=O)N2CCC(C(=O)NCC3(N(C)C)CCCCC3)CC2)cc1
  -28%	?
55	CCOc1ccc(Nc2nc(N3CCCCC3)nc(N3CCCCC3)n2)cc1
  -3%	-1%
56	COc1cc(C(C)=O)ccc1OC(=O)C(C)N1C(=O)c2ccccc2C1=O (stereo not drawn)
  -9%	-1%
57	Nn1c(SCc2ccc(F)cc2)nnc1-c1ccncc1
  -7%	-8%
58	O=C1N[C@@H](Cc2c[nH]c3ccccc23)COC(=O)[C@@H](Cc2ccc(F)cc2)C/C=C\C[C@H]1CC(=O)N(CCO)Cc1ccccc1
  ?	-28%
59	O=C(O)CN1C(=O)/C(=C\C(Br)=C\c2ccccc2)SC1=S
  33%[activator]	7%
60	O=C(NCc1cccs1)C12CC3CC(CC(C3)C1)C2
  -25%	-11%

A different layout for six compounds above.
3) CCc1cc2c(SCC#N)ncnc2s1
4) Fc1ccccc1Nc1n[nH]c(=S)s1
5) Cc1ccc(-n2nc3c(c2NC(=O)CCC2CCCCC2)CS(=O)C3)cc1 (stereo not drawn)
6) COc1ccc(OC)c(/C=C/c2sc3ccccc3[n+]2C)c1
7) COc1ccc(-c2nnc(SCC(=O)c3[nH]c(C)c(C(C)=O)c3C)o2)cc1
8) COCCn1nnnc1C(c1ccc(OC)cc1OC)N1CCN(c2ccccc2F)CC1 (stereo not drawn)
assay / entry | 3 | 4 | 5 | 6 | 7 | 8
VACV Venus inh | -18% | -12% | 0% | -8% | -2% | -27%
VACV mCherry inh | ? | -11% | -10% | 28% | -4% | .

Further compounds
Results follow in this order: VACV Venus inh	VACV mCherry inh
61	O=C(NCCc1c[nH]c2ccccc12)C(F)(F)F
  -14%	.
62	CCCC(c1nnnn1CC1CCCO1)N1CCN(c2nc3ccccc3s2)CC1 (stereo not drawn)
  8%	5%
63	CC(=O)N=Nc1[nH]c(N)c2ccccc12
  -8%	i
64	CCN(CC)S(=O)(=O)c1ccc2c(c1)nc(CN(C)C(=O)Nc1ccc(C)c(F)c1)n2C
  -10%	-24%
65	COC(=O)C1(Cc2ccc(O)c(CC3OC3(C)C)c2)OC(=O)C(O)=C1c1ccc(O)cc1 (stereo not drawn)
  -1%	3%
66	CCN(CCN(C)C)C(=O)c1ccc2nc(C)c(N(C)C(=O)CCc3ccccc3)n2c1
  -6%	6%
67	COC(=O)C1=C(C)NC(=O)C1(Nc1ccc(Cl)cn1)C(F)(F)F (stereo not drawn)
  -8%	-18%
68	Cc1ccc(-n2cc(CNCCN3CCOC3=O)c(-c3ccc(F)cc3)n2)cc1
  -22%	-18%
69	COC(=O)C1=C(C)NC(C)=C(C(=O)OC)C1C(=O)OCC(=O)c1ccc(F)cc1
  -4%	i
70	CCOc1cc(/C=C/C(=O)c2ccc(C)cc2)ccc1OCC(=O)N(C)C
  ?	?
71	CC(=O)Nc1cccc(-c2ccnc3c2CC(C(=O)Nc2cccc(NS(C)(=O)=O)c2)O3)c1 (stereo not drawn)
  1%	5%
72	COc1ccc([C@@H]2C[C@H]3[C@@H](CN2S(=O)(=O)c2ccccc2)C(=O)C[C@@H](c2ccccc2F)N3S(=O)(=O)c2ccc(C)cc2)cc1
  -13%	i
73	COC(=O)CC1Oc2ccc(F)cc2-n2cc(-c3ccc(Cl)cc3)nc21 (stereo not drawn)
  -13%	i
74	CSCCC(NC(=O)c1ccccc1Cl)C(=O)OCC(=O)N1CCCC1=O (stereo not drawn)
  -13%	-10%
75	COc1ccc2c(c1)c1c(c(=O)n(-c3ccccc3C)c(=O)n1Cc1c(F)cccc1Cl)n2C
  -4%	-11%
76	O=C(COc1ccc(S(=O)(=O)NCc2ccccc2)cc1)NCc1cccnc1
  -2%	-9%
77	O=C(CCCN1C(=O)c2cccnc2C1=O)Nc1ccc(Br)cc1
  -11%	-15%
78	CC1CCN(CCC(=O)Nc2ccc3c(c2)CCC3)CC1
  -2%	i
79	O=C(c1ccc(Cl)c(S(=O)(=O)N2CCCCCC2)c1)N1CCN(c2ccccc2O)CC1
  -24%	-13%
80	CC(=O)Nc1ccc(OCC(O)CN2CCCCC2C)cc1 (stereo not drawn)
  -3%	-8%
81	COc1ccc(-c2nnc(SCC(=O)N/N=C/c3ccccc3C(=O)O)n2-c2ccccc2)cc1
  -13%	-13%
82	COc1ccc(Cl)cc1NC(=O)Nc1ccccc1C(N)=O
  -22%	-6%
83	CC(C)CNC(=O)/C=C/C=C/CCCCCC/C=C/c1ccc2c(c1)OCO2
  -15%	-12%
84	COc1ccc(CC(=O)NCc2ccccc2)cc1OC
  -14%	-9%
85	COC(=O)C1CCN(Cc2ccc3c(c2)CN(C(=O)c2ccnn2C)CCO3)CC1
  -7%	-13%
86	O=c1[nH]nc(-c2n[nH]c(=O)o2)o1
  1%	-13%
87	O=C1NC[C@H](CCCCN2C[C@H](Cc3ccc(O)cc3)N(CCc3ccccc3)C(=O)C2=O)N(CCc2ccc(O)cc2)C1=O
  -13%	-8%
88	CCCCNC(=O)[C@@H]1CC=C[C@@H]2CCN(CCCC)C(=O)[C@@H]21
  -8%	-13%
89	CC1(c2nnnn2Cc2ccccc2)CCC(=O)N1Cc1cccc(C(F)(F)F)c1 (stereo not drawn)
  -2%	-11%
90	C=COCCn1c(C)c(C(C)=O)c2cc(O)ccc21
  -4%	-14%
91	CCOc1ccc(CCNC(=O)c2cn(CC)c3ccc(S(=O)(=O)N4CCc5ccccc5C4)cc3c2=O)cc1OCC
  -24%	-17%
92	COc1cc(C2C(C#N)=C(N)OC3=C2C(=O)CC(C)(C)C3)ccc1OC(=O)N1CCOCC1 (stereo not drawn)
  4%	-9%
93	CCOC(=O)N1CCN(C(=O)CN(c2ccccc2OC)S(=O)(=O)c2ccc(C)cc2)CC1
  -19%	-17%
94	Cc1ccc(NCc2nnc(SC(C)C(=O)N/N=C/c3ccc(C)o3)n2-c2ccccc2)cc1 (stereo not drawn)
  -6%	i
95	O=C(CS(=O)(=O)Cc1ccccc1)c1ccccc1
  -20%	i
96	O=C(CNC(=O)c1ccc(F)cc1)NCc1ccc(Cl)cc1
  -19%	-9%
97	Cc1cccc(CN2C[C@]34CC[C@@H](C[C@@H]3S2(=O)=O)O4)c1
  -1%	-11%
98	COC(=O)C1Sc2[nH]c(=O)sc2C(c2ccc(Cl)cc2)C1C(=O)OC (stereo not drawn)
  -18%	i
99	Cc1cccc(C)c1OCCCN1CCCC1
  0%	.
100	CC(C)(C)OC(=O)N1CCC(c2c(C(=O)NCCN3CCOCC3)cnn2-c2ccc(F)cc2)CC1
  -7%	-10%
101	COc1ccc(O)c(/C=C(\C#N)C(=O)Nc2cccnc2)c1
  -5%	-18%
102	Oc1c(Br)cc(Cl)cc1C=Nc1ccccc1Br
  -8%	i
103	Cc1ccc(NC2CCCN(C(=O)CSc3ccncc3)C2)cc1C (stereo not drawn)
  -8%	?
104	O=C(CN1C(=O)NC2(CCCC2)C1=O)OCc1cc(=O)n2cc(Br)ccc2n1
  0%[7.34 µM]	-6%[7.34 µM]
105	O=c1ccc2cc(S(=O)(=O)N3CCN(c4ccc(Cl)cc4)CC3)ccc2o1
  7%	19%
106	CCCCn1c(N)c(N(CCOC)C(=O)c2oc3ccc(Br)cc3c2C)c(=O)[nH]c1=O
  -18%	-7%
107	Cc1csc2ncc(C(=O)Nc3cccc(C(F)(F)F)c3)c(=O)n12
  -13%	i
